High-throughput results from PubChem BioAssay.
Bm FixLJ act = activators of Burkholderia fixLJ two-component system, primary screen, B. multivorans, GFP reporter | z-score (concentration not given with the values) | B. multivorans fixK-promoter GFP reporter, 18 h; active compounds read high | 29,000 tested, 0.3% active;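 active = replicate mean overnight rise in green fluorescent reporter signal, 3 or more SD over negative controls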;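 also: score is relative to vehicle wells of the plate; 300 nL library stock went into each well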
* hit, by the source's call.

SMILES	Bm FixLJ act
COc1cccc(C2CN(C(=O)c3cc4ccccc4cn3)CC2C(=O)O)c1 (stereo unspecified)	-1
CCc1cc2c(cc3c(=O)n(CCCC(=O)NCc4ccccc4Cl)nc(CC)n32)s1	-1.5
Cc1nn(CC(=O)N2CCN(c3cccc(C(F)(F)F)c3)CC2)c(=O)c2cc3sccc3n12	-1.5
Cc1c(Cl)cccc1NC(=O)c1cc2sccc2n1Cc1ccc(F)cc1	0.4
COc1ccc(C(=O)Nc2cc(C(C)C)c(O)c(S(=O)(=O)c3ccc(OC)cc3)c2C)cc1	0.26
COc1ccc(CCNC(=O)CCn2c(=O)c3ccccc3n(Cc3ccccc3C)c2=O)cc1OC	-1.3
Cc1ccccc1-n1c(/C=C/c2ccc(N(C)C)cc2)nc2ccccc2c1=O	21*
Cc1ccc(C)c(Cn2c3ccccc3c3cnn(CC(=O)NCCC4=CCCCC4)c(=O)c32)c1	-0.36
CCN(CC)S(=O)(=O)c1ccc2c(c1)c(=O)c(C(=O)N1CCN(c3ccc(OC)cc3)CC1)cn2C	-0.49
Cc1ccnn1CC(=O)N1CCC(c2nnc(Cn3ccnc3)n2C2CC2)CC1	-0.74
Cn1c(=O)oc2cc(S(=O)(=O)N3CCCC(C(=O)N4CCN(c5cccc(Cl)c5)CC4)C3)ccc21 (stereo unspecified)	-1.9
COc1ccc(-c2oc3ncn4nc(COc5ccc(C)cc5)nc4c3c2-c2ccc(OC)cc2)cc1	0.24
CCOc1cc(-c2ccc(OC(=O)c3ccc(OC)cc3)c(OC)c2)cc(=O)c2c(C)oc(C)c12	-6.2
CC(=O)c1ccc(NC(=O)/C=C/c2ccc(C)o2)cc1	-3.5
CN(CC1CCOCC1)C(=O)NCC(c1ccco1)N(C)C (stereo unspecified)	-3.6
O=C(NCc1cccs1)c1ccc(CSc2nc3ccncc3n2Cc2ccccc2)cc1	-5.8
NC(=O)C1CCN(CCCNC(=O)c2cnc3ccccn3c2=O)CC1	-0.73
CCC(c1cccnc1)N(C)C(=O)NCCc1nc(C)cc(=O)[nH]1 (stereo unspecified)	-1.4
CCC(C)NC(=O)c1cn(CC)c2ccc(S(=O)(=O)N3CCc4ccccc4C3)cc2c1=O (stereo unspecified)	0.25
CCOC(=O)N1CCC(NC(=O)c2ccc3c(c2)N(Cc2ccccc2)C(=O)c2ccccc2S3(=O)=O)CC1	-0.89

Two entries from above, bar-delimited:
structure | Bm FixLJ act
COc1ccc(-c2oc3ncn4nc(COc5ccc(C)cc5)nc4c3c2-c2ccc(OC)cc2)cc1 | 0.24
CCOc1cc(-c2ccc(OC(=O)c3ccc(OC)cc3)c(OC)c2)cc(=O)c2c(C)oc(C)c12 | -6.2

Following part:
SMILES	Bm FixLJ act
COc1cc2c(cc1OC)C(COc1ccc3c(C)cc(=O)oc3c1)N(C(=O)c1ccccc1C)CC2 (stereo unspecified)	-2.5
Cc1cccc(CN2CCC(c3nnc(CN4CCN(C)CC4)n3C)CC2)n1	-0.92
Cc1ccc(-c2noc(CNC(=O)c3ccccc3)n2)cc1	-1.6
CC(C)NC(=O)c1cc2c(s1)CCOC21CCN(c2ncccc2C#N)CC1	-1.4
COc1ccc(NC(=O)CSc2nc(-c3ccc(F)cc3)[nH]c2-c2ccc(C)cc2)cc1OC	-0.7
CC1=C(C(=O)OC2CCCCCC2)C(c2cccc(F)c2F)CC(=O)N1 (stereo unspecified)	-0.37
Cc1nn(C2CCS(=O)(=O)C2)c(C)c1NC(=O)CN1CCCCCC1 (stereo unspecified)	-1.1
CN(Cc1cnc(CC2CCCC2)[nH]1)C1CCS(=O)(=O)C1 (stereo unspecified)	-1.6
CCOC(=O)C1CCN(C(=O)c2cc3sc(C)cc3n2C)CC1	-0.8
O=C(c1ccc2c(c1)N(Cc1ccc(F)cc1)C(=O)c1ccccc1S2(=O)=O)N1CCC(Cc2ccccc2)CC1	0.46
CCC(O)c1nc2ccccc2n1Cc1cccc(Cl)c1 (stereo unspecified)	-2.9
Cc1ccc(CN2CCSc3ccc(C(=O)Nc4cc(C)cc(C)c4)cc32)cc1	0.99
Cc1nnc(SCCCNC(=O)Nc2cc3[nH]cnc3c(C)c2C)s1	0.72
CCc1ccccc1N(C)C(=O)c1nn(-c2ccc(OC)cc2)c(=O)c2c1c1ccccc1n2C	-2.2
CSCCCNC(=O)c1ccc(N2CC(=O)NC2=O)cc1	0.55
CCOc1nc(NC(=O)NS(=O)(=O)Oc2ccc(Cl)cc2)nc(-c2ccccc2)n1	0.08
Cc1cc(C)c(S(=O)(=O)NCCc2cc3ccc(C)cc3[nH]c2=O)c(C)c1	-0.5
O=C(CCCCn1c(=O)[nH]c2ccsc2c1=O)N1CCN(c2cccc(Cl)c2)CC1	0.07
Cc1cc(C)n(CCCc2nc(-c3ccc(C)o3)nn2CCO)n1	0.23
CN(C)CCN1C(=O)c2ccccc2N(C)c2ccccc21	-1.6

Taken from above.
`CN(Cc1cnc(CC2CCCC2)[nH]1)C1CCS(=O)(=O)C1` (stereo unspecified) @ Bm FixLJ act: -1.6
`Cc1cc(C)n(CCCc2nc(-c3ccc(C)o3)nn2CCO)n1` @ Bm FixLJ act: 0.23
`Cc1nn(C2CCS(=O)(=O)C2)c(C)c1NC(=O)CN1CCCCCC1` (stereo unspecified) @ Bm FixLJ act: -1.1
`Cc1nnc(SCCCNC(=O)Nc2cc3[nH]cnc3c(C)c2C)s1` @ Bm FixLJ act: 0.72
`CC(C)NC(=O)c1cc2c(s1)CCOC21CCN(c2ncccc2C#N)CC1` @ Bm FixLJ act: -1.4
`CSCCCNC(=O)c1ccc(N2CC(=O)NC2=O)cc1` @ Bm FixLJ act: 0.55
`O=C(CCCCn1c(=O)[nH]c2ccsc2c1=O)N1CCN(c2cccc(Cl)c2)CC1` @ Bm FixLJ act: 0.07

(cont.)
SMILES	Bm FixLJ act
CCc1ccccc1NC(=O)c1ccc2c(c1)N(Cc1cccc(Cl)c1)C(=O)c1ccccc1S2(=O)=O	-0.42
CCn1nc(C)cc1C(=O)NC(c1cnc2ccccc2c1)C1CC(O)C1 (stereo unspecified)	-0.31
CCCCC(=O)N(Cc1ccc(-c2ccccc2-c2nn[nH]n2)cc1)[C@H](C(=O)O)C(C)C	-0.05
Cc1nc(-c2cccc(C(=O)NC(C)Cc3cccnc3)c2)c(C)[nH]1 (stereo unspecified)	0.63
COc1ccc(-c2ccnc3c2c(=O)n(C)c(=O)n3C)cc1OC	0.07
CCc1ccc(OCCN(C)Cc2cc(=O)n3nc(SC)sc3n2)cc1	0.08
Clc1ccc(Nc2nnc(Cc3ccncc3)c3ccccc23)cc1	-2
O=C(CCCN1CCCC1)NCc1cc2n(n1)CCN(C(=O)C1CCC1)C2	-1.1
CCc1ccc2c(c1)NC(c1ccc(OC)cc1)=NC(c1ccncc1)=N2	-1.6
COc1cccc(NC(=O)c2sc3nc(N4CCOCC4)c4c(c3c2N)CC(C)(C)OC4)c1	-0.84
O=C(c1ncc(F)cc1F)N1CC2CCC[C@](O)(c3ccccc3)C2C1 (stereo partly specified)	-1.2
Cc1ccccc1NC(=O)/C(C#N)=C/c1ccc(Cl)cc1Cl	-0.12
CCn1cc(S(=O)(=O)NC2COCC2Cc2ccnc3ccccc23)c(C)n1 (stereo unspecified)	-0.79
Cc1noc(C)c1-c1ccc(S(=O)(=O)N2CCN(c3cnccn3)CC2)s1	1.1
Cc1ccc(Sc2ccc(N3CCC(C(=O)Nc4ccc(C)c(F)c4)CC3)nn2)cc1	-1.4
Cc1sc2ncn(CC(=O)Nc3cccc(C(F)(F)F)c3)c(=O)c2c1S(=O)(=O)N1CCC(C)CC1	-0.79
Cc1ccc(CN(Cc2ccco2)C(=O)COc2c(C)cc(C)cc2C)cc1	0
COc1ccc(S(=O)(=O)N(CC(=O)N(C)Cc2ccccc2)c2ccc(Cl)cc2)cc1	1.1
O=S(=O)(c1ccc(-c2cc(C(F)(F)F)[nH]n2)o1)N1CCC(Oc2cccnc2)CC1	1.3
COc1cccc(N2CC(NC(=O)c3ccc4nc(C)cn4c3)CC2=O)c1 (stereo unspecified)	-0.15
Cc1ccc(CN(CCO)C(=O)NCc2ccccc2CN(C)C)cc1	-1
Cc1ccc2c(CC(=O)N(Cc3cccc(Cl)c3)C3CCS(=O)(=O)C3)coc2c1 (stereo unspecified)	-0.86
O=c1c2sc3ccccc3c2n(Cc2ccc(F)cc2Cl)c(=O)n1Cc1ccccc1	-0.56
COCCNc1oc(/C=C/c2ccc(F)cc2)nc1C#N	-2.1
Cn1nc2n(c1=O)CC(C(=O)Nc1nc3c(s1)CCCCCC3)CC2 (stereo unspecified)	0.2
CC(C)CCN1C(=O)c2ccccc2CC1(C)C(=O)NC1CCC(C)CC1 (stereo unspecified)	-1.1
C[C@]12Cc3cn[nH]c3C[C@@H]1CC[C@@H]1[C@@H]2CC[C@@]2(C)[C@H]1CC[C@]2(C)O	-0.09
Cc1c[nH]c(CNC(=O)COCc2nc3ccc(F)cc3[nH]2)c(C)c1=O	-1.6
COc1ccc(OCc2cc(C(=O)NCCC(C)C)no2)c(Cl)c1	-4
O=C1c2[nH]nc(-c3ccc(Br)cc3)c2C(c2cccc(O)c2)N1c1ccc(Cl)cc1 (stereo unspecified)	-0.45
COc1cc(OC)cc(-n2c(=O)c3ccccc3n(CC(=O)NCCc3ccc(OC)c(OC)c3)c2=O)c1	-0.21
Cc1cc(C)cc(OCCn2c(CCNC(=O)C3CCCCC3)nc3ccccc32)c1	-2.4
CCc1nc(C)sc1CNC(=O)C1COc2c(cccc2OC)C1 (stereo unspecified)	-1.1
COc1cc(NC(=O)CCc2c(C)nc3cc(-c4ccccc4)nn3c2C)cc(OC)c1OC	-0.05
Cc1cc(C)c2c(CC(=O)Nc3c(C(=O)Nc4ccc(Cl)cc4)oc4ccccc34)coc2c1	-1.2
CN(C)C(=O)C(CCN1CCC(O)(c2ccc(Cl)cc2)CC1)(c1ccccc1)c1ccccc1	-1.8
Cc1nc2nc(CNC(=O)OC(C)(C)C)nn2c(C)c1CCC(=O)NCc1ccc(F)cc1	-1.9
CCOCCOc1cccc(C(=O)N2CCN(c3ccccc3)C(=O)C2)c1	0.65
COc1ccc(C(=O)/C=C/c2cn(CC(O)CN(CC(C)C)CC(C)C)c3ccccc23)cc1 (stereo unspecified)	-1.9
CCC(C)NC(=O)Cn1c(=O)n(-c2ccc(Cl)cc2)c(=O)c2c3c(sc21)CCCC3 (stereo unspecified)	-1.1
CCC(=O)OCC(=O)C1(OC(=O)CC)C(C)CC2C3CCC4=CC(=O)C=CC4(C)C3(Cl)C(O)CC21C (stereo unspecified)	-2.1
Cc1ccnc(N2CCC3(CC2)OCCc2c3[nH]c3ccccc23)n1	-1.6
COc1ccc(-c2csc(-c3nc(-c4ccc(Br)s4)cs3)n2)cc1F	-0.66
CCCn1c(CCC(=O)Nc2cccc(CC)c2)nc2cccnc21	-2.4
COc1ccc(CNC(=O)Cc2c(C)c3cc4c(C)coc4c(C)c3oc2=O)cc1OC	-1.4
Cc1cccc(NC(=O)Cn2c(=O)n(CCCCCC(=O)NCc3ccccc3)c(=O)c3sccc32)c1	-0.26
COc1ccc(-c2noc(CSc3nnc(-c4ccccc4)n3-c3ccc(F)cc3)n2)c(OC)c1	1.6
Cn1c(=O)[nH]c(=O)c2c1nc1n(CCO)c(-c3ccccc3)cn21	1.4
CCN(CC)c1ccc(NC(=O)Cn2ncc3c(C)n(Cc4ccccc4F)c(C)c3c2=O)c(C)c1	-2.5
CCOC(C)(C)C(=O)NC1COCC1Cc1ccnc2ccccc12 (stereo unspecified)	-0.43
CC(C)(C)C(=O)NC(c1ccc2c(c1)CCO2)C1CC(O)C1 (stereo unspecified)	0.19
COc1cccc2cc(C(=O)Nc3ccc(CC(=O)O)cc3)c(=O)oc12	-1.6
CC(=O)c1ccc(NC(=O)C2CCC(CNS(=O)(=O)c3cccc4nsnc34)CC2)cc1 (stereo unspecified)	2.5
COC(C(=O)N1CCc2c(nc(-c3cccnc3)[nH]c2=O)C1)c1ccccc1 (stereo unspecified)	-0.64
CC(C)OCCCNC(=O)CCCn1c(SCC(=O)c2ccc(Br)cc2)nc2c(sc3ccccc32)c1=O	0.68
Cc1cccc(C)c1NC(=O)NCCCN1CCN(c2ccccc2)CC1	-1.1
CS(=O)(=O)N1CCn2nc(CNC(=O)COCc3ccccc3)cc2C1	-0.71
Fc1cnc(NC2COCC2Cc2ccncc2)nc1N1CCCC1 (stereo unspecified)	-1.4
COc1ccc(CNC(=O)c2nc(SC(C)C)ncc2Cl)cc1	1.5
O=C(Nc1cccc(-c2cscn2)c1)N1CCCOC(Cn2cccn2)C1 (stereo unspecified)	-0.28

Later entries
SMILES	Bm FixLJ act
CCOc1ccc(NC(=O)CCNS(=O)(=O)c2cccc3nsnc23)cc1	-0.91
COc1ccccc1/C=C/c1nc(C#N)c(N(C)C)o1	-0.76
Cc1ccc(-c2cc(C(F)(F)F)c(C#N)c(SCC(=O)O)n2)cc1	0.39
COc1cc(OC)cc(C(=O)Nc2cc(-c3nc4cc(Cl)ccc4o3)ccc2Cl)c1	-0.54
COc1ccc(NC(=O)C(=O)Nc2ccc3nc4n(c(=O)c3c2)CCCCC4)c(OC)c1	-1.3
Cc1cccc(NC(=O)CCS(=O)(=O)c2ccc3c(c2)n(C)c(=O)c(=O)n3C)c1C	2.8
CCN(C(=O)c1cc2c(Cl)nc3ccc(C)cc3c2s1)c1cc(OC)ccc1OC	-0.02
CCNc1ccnc(-c2ccc(C(=O)NCCS(=O)(=O)N(C)C)cc2)n1	-0.88
Cc1ccc(Cn2c(C)c(CNCc3ccc(OC(C)C)cc3)c(C(=O)O)c2C)cc1	-1.5
COc1ccccc1N1CCN(CC(O)COc2cccc3ccccc23)CC1 (stereo unspecified)	-1.3
Cc1ccc(Cl)cc1NC(=O)CC1Sc2ccccc2NC1=O (stereo unspecified)	-0.58
Cc1cc2nc(-c3ccc(OCc4ccc(F)cc4)cc3)cc(C(F)(F)F)n2n1	-2.3

Shown field by field: part of the list above.
SMILES: Cc1ccc(-c2cc(C(F)(F)F)c(C#N)c(SCC(=O)O)n2)cc1
  Bm FixLJ act: 0.39
SMILES: COc1ccccc1N1CCN(CC(O)COc2cccc3ccccc23)CC1 (stereo unspecified)
  Bm FixLJ act: -1.3
SMILES: CCOc1ccc(NC(=O)CCNS(=O)(=O)c2cccc3nsnc23)cc1
  Bm FixLJ act: -0.91
SMILES: CCNc1ccnc(-c2ccc(C(=O)NCCS(=O)(=O)N(C)C)cc2)n1
  Bm FixLJ act: -0.88

Some of the compounds tested, so the mix of outcomes need not match the whole.
